# BasE inh – inhibitors of Acinetobacter baumannii siderophore enzyme BasE; inhibition, % (test concentration not listed); AID 485350; 84,000 compounds, 0.1% hits; purified BasE, fluorescence polarization binding displacement;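 active means both replicates above 25% with normal brightness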;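 further: 0% = negative plate control signal and 100% = positive plate control signal; stock transfer was 100 nL into about 30 µL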
# LANA-nucl inh – inhibitors of KSHV LANA binding to nucleosomes. z-score (test concentration not listed). 51,000 compounds, 0.3% hits. FITC-LANA1-23 / chicken nucleosome fluorescence polarization; hits give low values;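 active means both repeat wells score below -2 in polarization z-score versus plate sample wells, excluding overly bright wells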;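 further: 100 nL library stock added to about 30 µL; numbers are from one replicate; some results filed as inactive read as strong as hits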
#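 test system = FITC-LANA peptide and chicken nucleosomes | amount = 240 nM purified chicken nucleosomes (480 nM peptide binding sites), final | reagent = 50 nM FITC-LANA1-23 probe | medium = TEN-BT buffer, pH 7.5 | doses = single compound addition by pin transfer, 100 nL per well | timing = 10–45 min, room temperature | detection = fluorescence polarization | repeats = duplicate plates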
# The depositor's hits bear a star; / = no result given; & = joins results of further samples. Not all compounds are listed, so the mix of outcomes need not match the whole.
# Sample of the layout (5 entries):
# Fields – BasE inh	LANA-nucl inh
> CCOc1ccc(C=C2C(=O)OC(c3ccccc3)OC2=O)cc1 (stereo not given)
→ 3.1	/
> Cc1ccc(CN(C)C(=O)C2CCCCC2)o1
→ 0.7	/
> O=C(NCC1CCCO1)c1ccc(NC(=O)c2ncn[nH]2)cc1 (stereo not given)
→ 0.6	0.052
> CN=C(Nc1ccnn1C1CCCCC1)c1ccccc1
→ 0.3	/
> O=C(O)C1CCN(c2nccs2)CC1
→ 2.0	/

# The whole of this part, repeating the preview:
# Fields – BasE inh	LANA-nucl inh
> CCOc1ccc(C=C2C(=O)OC(c3ccccc3)OC2=O)cc1 (stereo not given)
→ 3.1	/
> Cc1ccc(CN(C)C(=O)C2CCCCC2)o1
→ 0.7	/
> O=C(NCC1CCCO1)c1ccc(NC(=O)c2ncn[nH]2)cc1 (stereo not given)
→ 0.6	0.052
> CN=C(Nc1ccnn1C1CCCCC1)c1ccccc1
→ 0.3	/
> O=C(O)C1CCN(c2nccs2)CC1
→ 2.0	/
> CCOC(=O)c1oc2ccc(Br)cc2c1CSc1nnc(C(C)(C)C)n1N
→ 0.1	/
> CNC(=O)CCC(=O)N1CC(C)Oc2ccccc21 (stereo not given)
→ 1.1	-0.65
> NNC(=O)CNS(=O)(=O)c1ccccc1
→ 0.4	-1.2
> CC1=CC(C)C(C2OC(C)CC(C)(C)O2)C(C)C1 (stereo not given)
→ 2.8	-0.79
> CCCCn1nc(NC(=O)C(C)C)c2cc3cc(OC)ccc3nc21
→ -0.8	0.18
> N#C/C(=C\NCc1cc(C(F)(F)F)cc(C(F)(F)F)c1)S(=O)(=O)Cc1ccco1
→ -0.9	/
> Cc1nn(-c2ccccc2Cl)c(Cl)c1C=Nc1cc(Cl)ccc1C#N
→ 0.8	/
> Fc1ccc(CN2CCCN(c3ccc4c(c3)OCCO4)CC2)cc1
→ -1.3	-0.018
> COc1ccc(OCc2nnc(SCc3cc(=O)n4ccsc4n3)n2Cc2ccco2)cc1
→ 1.7	/
> COc1ccc(/C=C2\SC(=S)N(CCC(=O)NCCO)C2=O)cc1
→ -0.4	0.052
> O=C(NCCN1CCCC1)c1ccc2c(c1)OCCO2
→ 1.1	-0.95
> NC(=O)CSC1=N/C(=C\c2ccco2)C(=O)N1c1ccc(OC(F)F)cc1
→ -1.2	/
> O=C1COc2ccc(C(=O)CSc3nc4cc(Cl)ccc4c(=O)n3C3CCCC3)cc2N1
→ -1.5	/
> O=C1CCCN1c1ccc(S(=O)(=O)NCCc2ccccc2)cc1
→ 2.7	/
> O=C(CNc1ccc2c(c1)oc1ccccc12)c1ccc2c(c1)OCO2
→ 0.0	-1.2
> CC(C)(C)NC(=O)c1ccc2c(c1)C(=O)N(C1CCCCC1)C2=O
→ 0.3	-0.6
> NC(=O)CC(c1ccccc1)c1ccc2c(c1)OCO2 (stereo not given)
→ -1.2	-0.08
> Brc1cccc(OCCOc2cccc(-n3cnnn3)c2)c1
→ -0.6	/
> CN(C)c1ccc(NC(=O)Nc2cccc(Cl)c2)cc1
→ /	-1.3
> COc1ccccc1C(=O)Oc1ccc2ccc(=O)oc2c1
→ -2.7	/
> Cc1ccc2[nH]c3c(=O)n(CC(=O)N(CC(C)C)CC(C)C)ncc3c2c1
→ 0.6	/
> O=C(c1ccc(N2CCCC2)c(NC(=S)NC2CCCC2)c1)N1CCCC1
→ -1.0	-1.1
> O=C(O)c1ccccc1SC1CC(=O)N(Cc2ccccc2)C1=O (stereo not given)
→ 0.0	0.057
> C/C(=N\N1C(=O)c2ccccc2NC1c1ccccc1)c1ccccc1O (stereo not given)
→ -1.2	1.3
> COC(=O)c1ccccc1N(C)C(=O)c1cc(OC)c(OC)c(OC)c1
→ -1.0	1.1

# Entries above containing two or more sulfur atoms:
# Fields – BasE inh	LANA-nucl inh
> COc1ccc(OCc2nnc(SCc3cc(=O)n4ccsc4n3)n2Cc2ccco2)cc1
→ 1.7	/
> COc1ccc(/C=C2\SC(=S)N(CCC(=O)NCCO)C2=O)cc1
→ -0.4	0.052

# More structures follow:
# Fields – BasE inh	LANA-nucl inh
> CCCNC(=O)COc1ncnc2ccccc12
→ 1.4	/
> O=C(O)CC1(CC(=O)NCc2cccnc2)CCCCC1
→ -3.6	2.3
> CCOC(=O)c1c(C)nc(-c2ccccc2)nc1NC(=O)CC
→ 2.8	0.34
> CC(=O)Nc1ccccc1C(=O)NCc1ccco1
→ -0.1	-0.67
> N#CC(c1ccc(Cl)cc1)c1c(Cl)cc(-n2ncc(=O)[nH]c2=O)cc1Cl (stereo not given)
→ /	-0.32
> c1ccc(OCCCn2nnc(-c3ccncc3)n2)cc1
→ -2.1	0.26
> CNC(=O)NC(=O)C(c1ccccc1)N1CCCC(c2nnc3ccc(C(F)(F)F)cn23)C1 (stereo not given)
→ -0.4	/
> CCc1ccc(CNC)cc1
→ 4.2	/
> Cc1cccc(CN2C(=O)C(O)(CC(=O)c3ccco3)c3ccccc32)c1 (stereo not given)
→ -1.6	0.11
> CCn1c(-c2ccco2)nn(CN(C)Cc2cccc(Cl)c2)c1=S
→ -2.9	/
> CC(O)Cn1c(Br)nc2c1c(=O)n(C)c(=O)n2C (stereo not given)
→ 3.6	-0.32
> COc1ccnc(CS(=O)c2nc3cc(OC(F)F)ccc3[nH]2)c1OC (stereo not given)
→ /	-0.33
> O=c1c(-c2ccc(Cl)cc2Cl)c(C(F)(F)F)oc2cc(O)ccc12
→ 0.1	/
> Cc1ccc(C)n1-c1ccc(C(=O)O)cc1O
→ 47*	-0.18
> COc1ccc(-n2nnc3c(SCC(=O)NC4CCCCC4)ncnc32)cc1
→ -0.7	0.84

# Quoted at random: two entries already listed
# Fields – BasE inh	LANA-nucl inh
> Cc1cccc(CN2C(=O)C(O)(CC(=O)c3ccco3)c3ccccc32)c1 (stereo not given)
→ -1.6	0.11
> CCOC(=O)c1c(C)nc(-c2ccccc2)nc1NC(=O)CC
→ 2.8	0.34

# Further structures follow:
# Fields – BasE inh	LANA-nucl inh
> Cc1ccc(S(=O)(=O)N2CCCCC2C(=O)O)cc1 (stereo not given)
→ 1.4	-0.5
> CO/N=C1\CCCc2c(C(=O)NN)sc(SC)c21
→ -0.1	0.54
> N#Cc1ccc(C(=O)OCC(=O)Nc2ccccc2C#N)cc1
→ 1.0	/
> N#C/C(=C\c1ccccc1)C(=O)Nc1cccc2c1C(=O)NC2=O
→ 2.7	/
> O=C(O)c1cccc(-n2cnc3ccccc3c2=O)c1
→ 0.8	/
> COc1ccccc1Nc1cccc2nonc12
→ -14	0.75
> Cc1cc2c(n1-c1ccc(C(=O)NC(C)C)cc1)CCCC2
→ -2.9	0.79
> O=c1oc(-c2ccco2)cc(-c2ccccc2)c1-c1ccccc1
→ 1.6	0.35
> O=C(CCOc1ccccc1)Nc1ccccc1N1CCOCC1
→ 0.6	/
> COc1ccc2c(c1)/C(=C/c1c(O)n(C)c(=O)c3ccccc13)C=N2
→ /	1.1
> CC1=C/C(=N\Nc2ccc(C(=O)O)cc2)CC1
→ 2.0	/
> O=C(NCc1ccc2c(c1)OCO2)c1c[nH]c2ccc(S(=O)(=O)N3CCOCC3)cc2c1=O
→ 0.3	1.5
> CN(C)C(=O)CSc1ccccc1C(=O)O
→ 0.6	/
> Cc1ccc2c(c1)CCCN2C(=O)c1scc(S(=O)(=O)c2ccc(Cl)cc2)c1C
→ 0.2	/
> CC1CCCCN1C(=O)CSc1nc(C2CC2)nc2ccccc12 (stereo not given)
→ -7.2	-0.78

# More structures follow.
Molecule	BasE inh	LANA-nucl inh
CC(C)CSc1nnc2c3ccccc3n(C)c2n1	-2.2	0.63
O=S1(=O)CCC(NCc2ccccc2)C1 (stereo not given)	-1.0	0.69
COc1ccc(-n2cc(C(=O)NC(C)CCc3ccco3)c3ccccc3c2=O)cc1 (stereo not given)	-0.1	-0.53
N#Cc1cc(C#N)c(SCC(=O)N(c2ccccc2)C2CCCCC2)nc1N	-6.0	/
CCc1nc2cc(C)c(C)cc2nc1CC	0.2	0.36
CCOC(=O)NC1CCN(CC)CC1	1.0	0.38
N#Cc1sc2nc(-c3ccccc3)ccc2c1N	0.6	0.5
O=C1OC2(c3ccccc3)C3CCCC2C13	1.4	-0.13
N#Cc1ccccc1CSCCNc1ncnc2c1oc1ccccc12	-0.3	/
Cc1ccc2scc(CC(=O)O)c2c1	0.3	-0.03
CNC(=O)COC(=O)c1c(-c2c(F)cccc2Cl)noc1C	0.1	/
Cc1cc2nc(COC(=O)C(C)C)cc(=O)n2o1	0.3	-0.68
O=C(CSc1n[nH]c(=O)n1C1CC1)NC1CCCC1	-0.3	/
CCOC(=O)C1CCN(C(=O)COC(=O)c2ccc(N(C)C)cc2)CC1	0.8	/
S=C(c1cccs1)N1CCOCC1	1.6	0.27
Cc1cc(C)c(NCc2ccccc2O)c(C)c1	1.4	-0.57
NNC(=O)c1cc(-c2ccccc2)nc2ccccc12	-1.8	0.36
C=Cn1ccc(CCC)c1-c1cccs1	-1.1	1.5
CSc1nn2c(=O)c(C)nnc2s1	-1.4	-0.69
Brc1cccc(C=NN2CCN(c3ccccn3)CC2)c1	1.5	-0.27
O=c1[nH]c(CN2CCCC2)nc2c(Br)cc(Br)cc12	-2.9	/
C/C(=N\NC(=O)C1CC1)c1ccccc1O	-1.1	/
O=C(O)CCSc1nc2ccccc2n1C1CCCCC1	2.7	/
Cn1c(=O)[nH]c(=O)c2c1ncn2Cc1ccc(F)cc1	0.6	/
CC(NC(=O)c1ccc(C#N)cc1)C1CC2CCC1C2 (stereo not given)	3.9	/
CCOC(=O)C(C(O)c1ccccc1)N1CCN(S(=O)(=O)c2ccc(C)cc2)CC1 (stereo not given)	0.5	/
CCOc1cccc2c1CCNC2=O	2.8	-0.26
CCOC(=O)C1CCN(C(=O)C2Cc3ccccc3N2C(=O)OCc2ccccc2)CC1 (stereo not given)	-1.2	/
CCN1CCc2c(sc(=NC(=O)c3ccc(F)cc3)n2C(=O)c2ccc(F)cc2)C1	-3.5	/
COc1ccc(/C=C2\Sc3ccc(C(=O)N4CCOCC4)cc3N(C)C2=O)cc1	-3.3	0.26
O=C(c1ccc(O)cc1)c1ccc(O)cc1O	31*	0.21
Cn1ncc2c(N3CCCC3CO)ncnc21 (stereo not given)	3.8	-0.24
COC(=O)c1ccsc1N1C(=O)C=CC1=O	-0.9	0.11
COc1ccc(O)c(-c2cc(C(F)(F)C(F)F)nc(-c3ccccc3)n2)c1	-0.5	-0.25
CN(C)C(=O)COC(=O)c1ccccc1Oc1ccccc1	-0.2	/
Cc1ccc2c(c1)CCCN2C(=O)c1ccc2c(c1)OCO2	-2.6	-0.31
Cc1cc(C)nc(SCc2ccccc2C(=O)N2CCN(C(=O)c3ccco3)CC2)n1	-0.1	/
CC(C)(C)NC(=O)Cn1cc(S(=O)(=O)Cc2ccccc2)c2ccccc21	-1.4	-0.29
COc1ccc(-c2nnc(N)s2)cc1	0.3	0.84
CCCn1c(=S)[nH]c2ccccc21	0.8&-0.3	0.49
CC(C)NS(=O)(=O)c1ccc(OCC(=O)NC2CCCCC2)c(Cl)c1	-0.6	-0.8
CCn1c(=O)c2c(O)cc(=O)oc2c2ccccc21	-1.6	0.38
CC1CCCCN1C(=O)CCn1c(=S)oc2ccccc21 (stereo not given)	-0.9	0.31
Cc1cccc(NC(=O)CSc2nc3c(cc2C#N)C(=O)CC(C)(C)C3)c1	-0.9	/
CC1(C(=O)O)CCC(C(=O)N2CCCCC2)C1(C)C (stereo not given)	0.3	-1
COc1ccc(S(=O)(=O)NC23CC4CC(C2)CC(C(=O)O)(C4)C3)cc1	2.6	/
O=C(CCN1C(=O)c2ccccc2S1(=O)=O)Nc1cccc(C(=O)O)c1	-4.9	/
N#C/C(=C\c1cc2ccccc2nc1N1CCOCC1)C(=O)Nc1ccc2c(c1)OCCO2	-0.7	/
COc1ccccc1N1CCN(C2C3CC4CC(C3)CC2C4)CC1 (stereo not given)	-7.0	-0.96
O=C1NC(=O)/C(=C/C(=O)c2ccccc2)S1	-3.3	1.4
CCC(C)(C)C(=O)Nc1ccc(Cl)cc1	4.2	0.22
Cc1nc2ccccc2c(=O)n1-c1ccc(C(=O)NC2(C)CCS(=O)(=O)C2)cc1 (stereo not given)	-0.5	/
COC(=O)CCc1csc(N)n1	-0.5	-0.15
c1ccc2c(c1)c1ccccc1c1nn3nnnc3nc21	3.7	-0.024
Cc1cccc(NC(=O)CSc2cccc[n+]2[O-])c1C	2.7	/
Cc1ccc(NC(=O)c2ccc3noc(-c4ccccc4)c3c2)c(C)c1	-0.1	-0.23
Cc1nc2ccccc2n1CCc1nc2c3ccccc3nc(=S)n2[nH]1	3.5	0.066
O=C(COC(=O)Cn1nnc(-c2ccccc2)n1)Nc1nc(-c2ccccc2)cs1	-0.8	/
NCCS(=O)(=O)N1CCCC1	2.2	-0.58
O=c1c2ccc(N3CCOCC3)c3cccc(c32)c2nc3ccccc3n12	-0.7	-2.9

# Remaining list, next part:
Molecule	BasE inh	LANA-nucl inh
CCOc1ccc(NC(=O)c2cc3ccccc3o2)cc1	2.0	/
Cc1cc(C)cc(Oc2coc3cc(O)ccc3c2=O)c1	1.2	/
CSC(=Nc1ccc(Cl)cc1)N(C)C	2.3	/
N#Cc1nc2c(-c3nc4ccccc4s3)c(N)n(CCc3ccccc3)c2nc1C#N	12	-0.96
CC(NC(N)=O)C(=O)OCc1ccc(Cl)cc1Cl (stereo not given)	-2.5	/
COc1ccc(CN2CCN(C(=O)CN3C(=O)C4C5C=CC(C5)C4C3=O)CC2)c(OC)c1OC (stereo not given)	-1.1	-0.89
COc1ccc(-c2noc(N3CCC(C(=O)NC(C)CCc4ccccc4)CC3)n2)cc1 (stereo not given)	-1.0	0.57
O=C(CCn1cnc2ccccc2c1=O)Nc1ccccc1C(F)(F)F	3.1	0.25
CN(C)/N=C/C=C1\CCC(P(=S)(N2CCOCC2)N2CCOCC2)=C1N1CCOCC1	0.1	/

# Screening data: PubChem, ICCB-Longwood Screening Facility, Harvard Medical School
